Screening data (PubChem BioAssay)
Rango complex inh = inhibitors of Rango-importin beta complex formation | Q14974 | Rango CFP/YFP FRET sensor + importin beta, 45 min | Potency, µM (titrated, usually from 92.2 µM), without a hit: top-dose inhibition of complex formation | actives 0.031% (n = 340,000); active = rising FRET ratio curve, often small or poorly fitted; inconclusive = mostly compound fluorescence or quenching in the first reads; inactive = flat curves in all reads;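 further: potency means the concentration at half of the fitted maximal effect; 0% = DMSO wells and 100% = buffer wells lacking importin beta; nearly all actives have a fitted effect of over 15% in size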
Target sequence (Q14974 whole entry, looked up): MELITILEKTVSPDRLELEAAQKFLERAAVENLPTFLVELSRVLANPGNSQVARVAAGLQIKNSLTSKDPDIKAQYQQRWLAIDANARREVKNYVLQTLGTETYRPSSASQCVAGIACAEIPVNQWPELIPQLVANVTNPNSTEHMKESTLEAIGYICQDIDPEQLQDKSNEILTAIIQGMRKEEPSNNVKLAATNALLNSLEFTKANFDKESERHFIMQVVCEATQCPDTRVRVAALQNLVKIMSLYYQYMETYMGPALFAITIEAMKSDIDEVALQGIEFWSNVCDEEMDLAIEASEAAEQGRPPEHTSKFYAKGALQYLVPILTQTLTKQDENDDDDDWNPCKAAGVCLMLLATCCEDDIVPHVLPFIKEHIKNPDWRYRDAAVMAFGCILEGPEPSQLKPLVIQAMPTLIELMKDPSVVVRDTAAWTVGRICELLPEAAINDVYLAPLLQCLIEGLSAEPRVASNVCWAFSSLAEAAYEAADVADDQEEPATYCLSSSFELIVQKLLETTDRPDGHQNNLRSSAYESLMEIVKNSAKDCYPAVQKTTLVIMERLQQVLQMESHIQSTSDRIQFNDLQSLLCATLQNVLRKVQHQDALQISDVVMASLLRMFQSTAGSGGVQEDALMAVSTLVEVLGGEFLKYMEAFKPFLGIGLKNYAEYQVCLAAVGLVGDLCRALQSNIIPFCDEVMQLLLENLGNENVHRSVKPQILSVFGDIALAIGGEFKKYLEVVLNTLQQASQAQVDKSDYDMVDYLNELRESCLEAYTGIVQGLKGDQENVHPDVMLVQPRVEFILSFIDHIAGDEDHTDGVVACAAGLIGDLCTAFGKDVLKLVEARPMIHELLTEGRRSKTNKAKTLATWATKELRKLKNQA
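FRET biosensor (snurportin 1 IBB flanked by EYFP and cerulean), 50 nM, with compound 5 min, then 0.125 microM importin beta in PBS, 1 mM DTT, 0.02% Tween-20, 0.1% BSA. CFP/YFP ratio read after 45 min at room temperature; pre-read flags interference.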
GLA inh pH 4.5 = alpha-galactosidase A (human) inhibition, pH 4.5; activity change, negative = inhibition, % at 105 µM; purified enzyme, 4-MU-alpha-Gal fluorescence, pH 4.5; AID 1467; 230,000 tested, under 10 active; P06280; inconclusive = small, poorly fitted or top-dose-only inhibition, or a rising curve; inactive = flat fitted curve, though single readings scatter; no compound was filed as active;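 further: 0% = full activity with enzyme and -100% = basal without enzyme; dose as in the result columns while the protocol names 77 µM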
miR-21 FLuc = raises the signal of a miR-21 reporter; HeLa miR-21 FLuc reporter, luciferase, 48 h; 340,000 tested, under 10 active; Potency, µM (titrated, usually from 38.3 µM), for inactives: at the top dose reporter change, positive = more light; active = well fitted rising curve with a large enough effect; inconclusive = small, poorly fitted or top-dose-only effect; inactive = no such curve, though single readings can be large or run the other way;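 further: % of control where 0% means no effect; miR-21 action dims this reporter so a rising signal means less miR-21 action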
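Using DMEM plus 10% FBS, HeLa miR-21-FLuc cells are incubated with test compounds (final up to about 40uM) for 48 hours; firefly luciferase signal is then imaged following reagent-mediated lysis.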
Rango dissoc inh = prevents RanGTP from dissociating the Rango-importin beta complex. Potency, µM (highest dose often 46.1 µM), for inactives: at the top dose activity change, negative = inhibition. Biochemical FRET Rango-importin beta, RanGTP-induced dissociation. actives 0.071% (n = 340,000); active means falling FRET ratio curve, often poorly fitted, with flat reads before Ran was added; inconclusive means other falling curves, or compound fluorescence or quenching; inactive means flat or rising ratio curve;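 further: potency means the concentration at half of the fitted maximal effect; % of control where 0% means no effect; nearly all actives have a fitted effect of over 45% in size; -100% = wells without RanGTP and RCC1; the record marks most hits as doubtful in a second field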
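Rango FRET biosensor (snurportin-1 IBB flanked by N-terminal EYFP and C-terminal CFP10) at 0.1 uM, with 0.25 uM importin beta in PBS, 1mM DTT, 0.02% Tween-20, 0.1% BSA. 0.6 uM Ran, 2mM GTP and 0.2 uM RCC1 were then added for 45 min at room temperature. Inhibition read as loss of FRET rise.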
Starred values were filed as active, the others as inactive; ? = inconclusive; · = not tested or not shown; & = joins results of further samples; [ ] = dose if it differs, or a comment. These rows are one share of the data; rates above refer to the full screens.

Compound	Rango complex inh	GLA inh pH 4.5	miR-21 FLuc	Rango dissoc inh
Cc1cc(=O)oc2cc(OCC(=O)OCc3nnc(-c4ccccc4)o3)ccc12	0.1%	10	-3%	1%
O=C1[C@H](Cc2ccccc2)NCC=CC[C@@H](c2ccc(Cl)cc2)N1Cc1ccc(Cl)cc1	0.4%	·	·	-10%
COc1ccc(NC(=O)CSc2nnc3ccc(-c4ccccn4)nn23)c(OC)c1	-0.5%	·	·	2%
CCOC(=O)c1nn(-c2ccc(OCC)cc2)c(C)c1C(C)=O	-2.1%	-1	-10%	-8%
O=C1C2CC=CCC2C(=O)N1c1nc2n(n1)C(c1ccccc1)CC(c1ccccc1)N2 (configuration not stated)	1.0%	-12	-6%	-29%
COc1ccccc1N1CCN(C(=O)C2CCN(S(=O)(=O)c3ccc(Cl)cc3)CC2)CC1	2.4%	-2	3%	10%
O=C(O)c1ccc([N+](=O)[O-])cc1Sc1ccsc1	-1.6%	·	·	0%
Cn1nnc(NC(=O)c2cccc(OCc3ccccc3)c2)n1	0.4%	-2	-17%	5%
Cn1nc(C(=O)Nc2c(-c3ccccc3)nc3sccn23)c2ccccc2c1=O	-0.1%	-7	-6%	-14%
Cc1nc(N2CCOCC2)[nH]c(=O)c1C(O)C(Cl)(Cl)Cl (configuration not stated)	-1.2%	-2	1%	19%
Cc1ccc2nc(SCC(=O)Nc3ccc4c(c3)OCCO4)nc(=O)n2c1	1.6%	·	·	6%
O=C(CSc1ncn[nH]1)c1ccccc1	-2.5%	2	-19%	-1%
Cc1cc(C)cc(NC(=S)N(CCCN2CCN(C)CC2)Cc2cccs2)c1	-0.5%	-9	-7%	-3%
CCOC(=O)c1cnn(C(=O)c2ccccc2)c1N	-0.3%	-10	0%	-10%
COc1ccc(-n2c(=O)c3ccccc3n(CC(=O)NC3CCCCC3)c2=O)cc1OC	2.9%	4[21.1 µM]	-3%	-6%
COc1ccccc1CNC(=O)C1CCC(=O)N(CCCc2ccccc2)C1 (configuration not stated)	-3.9%	·	0%	-9%
CCOC(=O)CNC(=O)C(Cc1ccccc1)NC(=O)OCc1ccccc1 (configuration not stated)	-1.8%	-8	4%	8%
Cc1ccc(OCC(=O)NCCNC(=O)c2cnccn2)cc1C	6.3%	·	-1%	-2%
Cc1ccsc1C(=O)N1CCCC(CO)(Cc2ccccc2F)C1 (configuration not stated)	-1.1%	·	4%	7%
CC(=O)c1cc(C#N)c(SCc2ccccn2)nc1C	-2.0%	-10	-72%	0%

13 compounds already listed, sorted by formula weight, descending.
Compound	Rango complex inh	GLA inh pH 4.5	miR-21 FLuc	Rango dissoc inh
O=C1[C@H](Cc2ccccc2)NCC=CC[C@@H](c2ccc(Cl)cc2)N1Cc1ccc(Cl)cc1	0.4%	·	·	-10%
O=C1C2CC=CCC2C(=O)N1c1nc2n(n1)C(c1ccccc1)CC(c1ccccc1)N2 (configuration not stated)	1.0%	-12	-6%	-29%
COc1ccc(NC(=O)CSc2nnc3ccc(-c4ccccn4)nn23)c(OC)c1	-0.5%	·	·	2%
Cc1cc(C)cc(NC(=S)N(CCCN2CCN(C)CC2)Cc2cccs2)c1	-0.5%	-9	-7%	-3%
Cn1nc(C(=O)Nc2c(-c3ccccc3)nc3sccn23)c2ccccc2c1=O	-0.1%	-7	-6%	-14%
Cc1cc(=O)oc2cc(OCC(=O)OCc3nnc(-c4ccccc4)o3)ccc12	0.1%	10	-3%	1%
Cc1ccc2nc(SCC(=O)Nc3ccc4c(c3)OCCO4)nc(=O)n2c1	1.6%	·	·	6%
Cc1ccc(OCC(=O)NCCNC(=O)c2cnccn2)cc1C	6.3%	·	-1%	-2%
CCOC(=O)c1nn(-c2ccc(OCC)cc2)c(C)c1C(C)=O	-2.1%	-1	-10%	-8%
Cn1nnc(NC(=O)c2cccc(OCc3ccccc3)c2)n1	0.4%	-2	-17%	5%
CC(=O)c1cc(C#N)c(SCc2ccccn2)nc1C	-2.0%	-10	-72%	0%
O=C(O)c1ccc([N+](=O)[O-])cc1Sc1ccsc1	-1.6%	·	·	0%
O=C(CSc1ncn[nH]1)c1ccccc1	-2.5%	2	-19%	-1%

(more compounds)
Compound	Rango complex inh	GLA inh pH 4.5	miR-21 FLuc	Rango dissoc inh
Cc1nnc(NC(=O)CCNC(=O)c2ccccc2Cl)s1	-3.0%	1	0%	5%
COc1ccc(NC(=O)C2CC3CCC2C3)c(OC)c1 (configuration not stated)	0.3%	·	·	0%
O=C1CCCN1c1ccc(C(=O)N(Cc2nnc(-c3ccccc3Cl)o2)C2CC2)cc1	-2.8%	·	·	22%
COc1ccc(C(C(=O)OCCN(C)C)c2ccccc2)cc1 (configuration not stated)	2.0%	-7	0%	9%
Cc1cccnc1N(C(=O)Nc1ccccc1)C1=NCC(C)(C)S1	0.6%	10	-23%	-7%
COc1cc(C(=O)NCC2(N3CCCCC3)CCCCC2)ccc1OCC(=O)N1CCOCC1	0.1%	7	3%	-4%
O=C(Oc1ccc(OC(=O)N2CCOCC2)cc1)c1ccccc1	-0.8%	-3	-1%	-3%
O=C(NC(=S)N1CCN(C(c2ccccc2)c2ccccc2)CC1)c1ccc(S(=O)(=O)N2CCOCC2)cc1	-0.8%	-13	-2%	-2%
Cc1cc(C)nc(SCc2nnc(SCC(=O)N3CCOCC3)o2)n1	-3.4%	3	0%	-8%
CCC1(CC)Cc2ccccc2-c2nc3ccccc3c(=O)n21	0.4%	1	-7%	-6%
CC1=C(C(=O)OCc2ccccc2)C(c2ccoc2)C(C#N)=C(N)O1 (configuration not stated)	?	2	-4%	?
COc1cc2ccccc2cc1C(=O)Nc1nccs1	-3.0%	·	-35%	-1%
Oc1c(CN2CCOCC2)cc(CN2CCOCC2)cc1CN1CCOCC1	2.7%	·	·	2%
CCOC(=O)NCc1ccc(S(=O)(=O)Nc2c(C)cccc2C)cc1	-4.9%	-8	8%	-7%
CCOC(=O)c1c(NC(=O)COC(=O)CCS(=O)(=O)c2ccc(C)cc2)sc(C)c1C	-2.4%	-18	-12%	0%
COc1cc(-c2[nH]ncc2CN(C)Cc2nonc2C)cc(OC)c1OC	-0.2%	-4	1%	8%
CC(NS(=O)(=O)c1ccc(Cl)cc1)C(=O)N1CCOCC1 (configuration not stated)	-3.9%	·	-1%	-4%
COc1cc(/C=N/n2c(COc3ccccc3)n[nH]c2=S)cc(Br)c1O	?	·	-6%	-29%
O=C(CCc1[nH]c2ccccc2c1Sc1ccccc1)N(CCO)CCO	?	-4	-12%	7%
COc1ccc(NC(=O)Cc2c(Sc3ccccc3)c3ccccc3n2C)cc1	0.5%	-3	6%	1%

Further results
Sequence of screens – Rango complex inh	GLA inh pH 4.5	miR-21 FLuc	Rango dissoc inh
> Cc1ccc(C(=O)Oc2ccc3ccc(=O)oc3c2)cc1
→ -1.0%	·	-2%	0%
> CN1CCN(C(=O)C2CCCN(S(=O)(=O)c3ccccc3)C2)CC1 (configuration not stated)
→ 1.1%	·	0%	2%
> CC(C)CCNC(=O)c1cc([N+](=O)[O-])ccc1N1CCOCC1
→ 0.4%	-3	-8%	1%
> CN(C(=O)COC(=O)CCc1c[nH]c2ccccc12)c1ccccc1
→ -1.0%	·	·	-4%
> COc1ccccc1NC(=O)N(Cc1ccco1)Cc1cc2ccc(C)c(C)c2[nH]c1=O
→ 4.7%	0	24%	0%
> O=C(c1ccc(CS(=O)(=O)c2cccc(C(F)(F)F)c2)o1)N1CCN(c2ccccn2)CC1
→ -3.5%	1	1%	-6%
> O=C(CN1CCN(S(=O)(=O)c2ccc(C(F)(F)F)cc2)CC1)N1CCNC1=O
→ -2.7%	·	·	-4%
> CCn1c(CNc2ccc(F)cc2)nnc1SCC(=O)Nc1ccccc1OC
→ -4.3%	-2	0%	10%
> O=C(NCc1ccccc1F)C1CCCN1C(=O)Nc1ccc(F)cc1 (configuration not stated)
→ 0.8%	·	1%	-1%
> CCO[C@@H]1OC(C(=O)NCc2ccccc2)=C[C@H](c2cn(C(C)=O)c3ccccc23)[C@H]1CCCO
→ 0.1%	-10	7%	-8%
> COc1cc2ccccc2cc1C(=O)NCc1ccncc1
→ 1.5%	·	-8%	-11%
> COc1ccc(NC(=S)NCCc2c[nH]c3ccc(OC)cc23)c(OC)c1
→ -0.2%	-16	5%	?
> Cc1ccc(CCNC(=O)CCS(=O)(=O)c2ccc3c(c2)oc(=O)n3C)cc1
→ -3.2%	·	-1%&-3%	-13%
> Cc1ccc(-c2nc(N/N=C/c3ccncc3)c3ccccc3n2)cc1
→ ?	-11	-34%	11%
> CCN(CC(=O)Nc1ccc2c(c1)OCCO2)C(=O)C(C)Oc1ccc(Cl)cc1 (configuration not stated)
→ -1.4%	·	·	-5%
> Nc1nc(SCC(=O)c2ccc([N+](=O)[O-])cc2)n[nH]1
→ -0.4%	0	-4%	3%
> C#Cc1ccc([C@@H]2C=C(C(=O)OCC=C)O[C@H](OCCCCO)C2)cc1
→ 0.2%	-7	-3%	17%
> O=c1c2ccccc2sc2c(CO)ccc(NCCN3CCCCC3)c12
→ 0.2%	·	·	1%
> CCc1ccc(C(=O)Nc2ccc(OC)c(S(=O)(=O)N3CCCCC3)c2)cc1
→ -2.0%	·	·	-2%
> Cn1cc(Br)cc2nc(C(F)(F)F)nc1-2
→ -1.0%	-3	-1%	0%
> Cc1ccc(OCCCc2c(C)n[nH]c2C)cc1
→ ?	-3	-4%	-4%
> Cc1ccc(-c2cccc(-c3cc(=O)oc4ccc(C(C)(C)C)cc34)c2)cc1
→ 0.4%	-9	·	-6%
> O=C(c1ccco1)N1CCC(c2nc3c(nnn3Cc3ccc(F)cc3)c(=O)[nH]2)CC1
→ -3.9%	·	-6%	-2%
> CCOc1ccccc1N1CCN(C(=O)c2ccncc2)CC1
→ 5.9%	-7	-2%	-1%
> O=C(Nc1c(Cl)cccc1Cl)C1CCN(C(=O)c2cccs2)CC1
→ 3.8%	·	0%	0%
> Cc1nn(C)c(C(=O)NC(=S)Nc2ccccc2Br)c1Cl
→ -3.9%	·	-30%	10%
> O=c1cc(-c2ccccc2)[nH]n1-c1nc2ccccc2s1
→ 3.3%	-10	-8%	?
> Cn1c(SCC(=O)Nc2ccccc2F)nnc1-c1ccc(S(=O)(=O)N2CCOCC2)cc1
→ 7.5%	-4	3%	?
> O=C(Nc1nccs1)c1ccccn1
→ -6.7%	-6	-36%	9%
> O=c1[nH]c(=O)n(Cc2ccccc2)c2nc(-c3cccs3)n(CCO)c12
→ ?	-7	-13%	-16%

Pulled by compound from above (2):
Sequence of screens – Rango complex inh	GLA inh pH 4.5	miR-21 FLuc	Rango dissoc inh
> C#Cc1ccc([C@@H]2C=C(C(=O)OCC=C)O[C@H](OCCCCO)C2)cc1
→ 0.2%	-7	-3%	17%
> CN1CCN(C(=O)C2CCCN(S(=O)(=O)c3ccccc3)C2)CC1 (configuration not stated)
→ 1.1%	·	0%	2%

Additional records
Sequence of screens – Rango complex inh	GLA inh pH 4.5	miR-21 FLuc	Rango dissoc inh
> CC(C)(C)C1CCc2c(sc(NC(=O)c3cc(C4CC4)on3)c2C#N)C1 (configuration not stated)
→ -1.3%	-7	-1%	-1%
> O=c1[nH]c(O)c(/C=C2\C=Nc3ccccc32)[nH]1
→ -3.9%	-14	-43%	-21%
> CN(C)c1ccc(-c2ccccc2)nn1
→ -3.6%	1	-37%	-1%
> Cc1ccc(S(=O)(=O)N(C)c2ccccc2C(=O)N2CCOCC2)cc1
→ -2.0%	·	-1%	-2%
> CC(C)(C(=O)c1ccccc1)/[N+]([O-])=C/c1ccc(F)cc1
→ 5.0%	·	·	-3%
> CC(C)n1cc(CN2CCC(C(=O)Nc3cccc(-c4cccc(Cl)c4)c3)CC2)cn1
→ 6.4%	·	?	-15%
